High-throughput results (PubChem)
VACV Venus inh: inhibitors of vaccinia virus (Venus reporter). Vaccinia virus Venus reporter expression, fluorescence. Potency, µM (highest dose often 36.5 µM), for inactives: at the top dose activity change, negative = inhibition, actives largely listed as inhibitors. 330,000 compounds, 0.46% hits. AID 720580; active means well fitted inhibition curve with a large enough effect; inconclusive means small, poorly fitted or top-dose-only effect; inactive means no such curve, though single readings can be large or run the other way; tested in A549 cells; note: nearly all actives have a fitted effect of over 30% in size; inactives centre near -10
Vaccinia mCherry: vaccinia inhibition (mCherry reporter). Potency, µM (titrated, usually from 36.5 µM), for inactives: top-dose activity change, negative = inhibition, most hits filed as inhibitors. Vaccinia virus mCherry reporter infection, fluorescence; about a quarter of the inactives have no number. 310,000 compounds, 0.63% hits. AID 720579; active = well fitted inhibition curve with a large enough effect; inconclusive = small, poorly fitted or top-dose-only effect; inactive = no such curve, though single readings can be large or run the other way; tested in A549 cells; note: nearly all actives have a fitted effect of over 35% in size; inactives centre near -10
Numbers without * were called inactive; i = inactive; ? = inconclusive; nt = no result given; & = joins results of further samples; [ ] = dose if it differs, or a comment. % is set by controls: 0 for no effect and ±100 for the full control effect; potency is the fitted concentration of half-maximal effect.

SMILES	VACV Venus inh	Vaccinia mCherry
COc1ccc(C(O)c2nccn2Cc2ccccc2)cc1OC (centres undefined)	-8%	i
Cc1cc(NC(=O)CSc2nccn2-c2cccc(F)c2)no1	-11%	i
CC(C)(C)C(Cn1ccnc1)NC(=O)c1ccc2nc(C3CC3)oc2c1 (centres undefined)	-10%	-18%
O=[N+]([O-])c1c(N2CCN(CCO)CC2)nc2ccccn12	-4%	i
O=C(O)c1ccccc1C(=O)NCc1c(Cl)cccc1Sc1ccc(Cl)cc1	-2%	-7%
CNc1ccc(C(=O)CC(O)CCC(C)C2OC(=O)CC(O)CC(=O)CC(O)CC(O)CC(O)CC(O)CC3(O)CC(O)C(C(=O)OC)C(CC(O[C@@H]4O[C@H](C)[C@@H](O)[C@H](N)[C@@H]4O)/C=C/C=C/C=C/C=C/C=C/C=C/C=C/C2C)O3)cc1 (some centres undefined)	-12%	-17%
CCn1c(SCC(=O)NC2=NCCS2)nnc1C(C)NC(=O)c1ccccc1Br (centres undefined)	-8%	i
CC(C)c1nnc(NC(=O)CCC(=O)NC2CCCc3ccccc32)s1 (centres undefined)	-5%	i
CCCCCn1c(=O)[nH]c2cc(C(=O)NC(C)CC)ccc2c1=O (centres undefined)	0%	-7%
CCN(CC)S(=O)(=O)c1nnc(NC(=O)c2ccc(Br)cc2)s1	-10%	i
NS(=O)(=O)c1cccc(NC(=O)COC(=O)c2cc(Cl)ccc2[N+](=O)[O-])c1	-17%	?
Cc1ccc(C)c(OCCC(=O)OCC(=O)NCCNC(=O)COC(=O)CCOc2cc(C)ccc2C)c1	3%	-6%

A stretch of the results above, as a working copy:
SMILES	VACV Venus inh	Vaccinia mCherry
CC(C)c1nnc(NC(=O)CCC(=O)NC2CCCc3ccccc32)s1 (centres undefined)	-5%	i
CCCCCn1c(=O)[nH]c2cc(C(=O)NC(C)CC)ccc2c1=O (centres undefined)	0%	-7%
CCN(CC)S(=O)(=O)c1nnc(NC(=O)c2ccc(Br)cc2)s1	-10%	i
NS(=O)(=O)c1cccc(NC(=O)COC(=O)c2cc(Cl)ccc2[N+](=O)[O-])c1	-17%	?
Cc1ccc(C)c(OCCC(=O)OCC(=O)NCCNC(=O)COC(=O)CCOc2cc(C)ccc2C)c1	3%	-6%

Additional results
SMILES	VACV Venus inh	Vaccinia mCherry
COc1ccc(C(C)(O)c2nc(-c3cccc(C(F)(F)F)c3)cs2)cc1 (centres undefined)	-13%	i
CC(C)OCCOc1ccc2oc(-c3ccco3)cc(=O)c2c1	-25%	-28%
C=CCN1C(=O)C(O)(CC(=O)c2ccccn2)c2ccccc21 (centres undefined)	-5%	?
O=C(COc1ccccc1)Nc1ccncc1	-8%	i
CC(=O)C1=CCC(c2ccc(Br)cc2)N(S(=O)(=O)c2ccc(C)cc2)C1 (centres undefined)	2%	32%[activator]
Clc1ccccc1CSC1=NCCN1	-4%	-10%
COc1ccc(C2/C=C\CN(C(=O)c3ccccc3)CC(=O)N2Cc2cccc(F)c2)cc1 (centres undefined)	-29%	i
CNC(=O)Oc1cc2c(cc1C(C)(C)C)CCC2	11%	-11%
Fc1ccc(CNc2nc3ccc(Cl)cc3n3nnnc23)cc1	-3%	-17%
CN(CC(=O)Nc1ccc(Cl)c(C(F)(F)F)c1)C(=O)c1cc(-c2ccncc2)nc2ccccc12	-4%	-14%
Cc1ccc(S(=O)(=O)N(C)C)cc1NC(=O)CSc1ccc2c(c1)OCCO2	-20%	i
COC(=O)[C@@H]1CCCN1C(=O)[C@@H](NC(=O)OC(C)(C)C)C(C)C	0%	i
CC(=O)c1cccc(NC(=O)COC(=O)COc2ccc(Cl)cc2)c1	-3%	i
COCCCN1C(=O)C(CC(=O)NCc2cccc3ccccc23)CC(C(=O)N(C(C)C)C(C)C)=C1C (centres undefined)	-9%	2%
O=S(=O)(Nc1ccc(Cl)cc1)c1ccc(N2CCOCC2)c(NC(=S)NC2CC2)c1	-21%	?
O=C(Nc1ccccc1)C1=C[C@@H](c2ccc3c(c2)OCO3)C[C@@H](OCCCCO)O1	-6%	-7%
Cn1c(SCC(=O)c2ccccc2)nc2cccnc21	4%	-6%
CCc1cccc(NC(=O)CCS(=O)(=O)c2ccc3c(c2)NC(=O)CO3)c1	-3%	i
COCCCN(C(=S)NC(=O)C(C)(C)C)c1c(N)n(Cc2ccccc2)c(=O)[nH]c1=O	0%[7.34 µM]	i[7.34 µM]
O=C(COC(=O)c1ccc(NS(=O)(=O)c2ccc(Br)s2)cc1)NC1CCCC1	-18%	i
CCC(=O)N(Cc1cccs1)C1CCOC(C)(C)C1 (centres undefined)	8%	-10%
O=C1C2ON(c3ccccc3)C(c3ccccn3)C2C(=O)N1c1ccc(Br)cc1 (centres undefined)	-17%	-8%[1.46 µM]
CC(=O)N1CCc2cc(S(=O)(=O)N3CCc4ccccc43)ccc21	?	-19%
COc1ccc(NS(=O)(=O)c2cccc(C(=O)NCCCN3CCOCC3)c2)cc1	-13%	-12%
CCCNC(=O)c1ccccc1NC(=O)c1ccc2c(=O)n3c(nc2c1)CCC3	-9%	-6%
Nc1ncnc2c1ncn2Cc1ccccc1	-6%	-18%
Cc1cccc(NC(=O)c2cc(-c3cc(Cl)ccc3O)n[nH]2)c1	-20%	-3%
CCc1ccc(NC(=S)/N=C(\N)Nc2nc(C)c3cc(CC)ccc3n2)cc1	?	?
COC(=O)c1ccc(CN2C(=O)NC3(CCCCC3C)C2=O)o1 (centres undefined)	-7%	nt
CNC(=O)c1cc2ccccc2o1	-7%	nt
Cc1cc(C)n(-c2nc(Nc3ccccc3)nc(-n3nc(C)cc3C)n2)n1	4%	-17%
CC(C)c1cnc(NC(=O)Cc2ccccc2)s1	-15%	i
Cc1c(C(=O)NCCO)sc2nc3n(c(=O)c12)CCC3	-20%	-16%
CCOc1ccc(S(=O)(=O)Nc2cccc(C(=O)N3CCN(C(C)=O)CC3)c2)cc1	-12%	-13%
COc1ccc2sc(N(CCCN(C)C)C(=O)c3ccc(S(=O)(=O)N4CCCC4)cc3)nc2c1	-24%	-10%
Clc1nnc(NC2CCCCC2)c(Cl)c1Cl	-13%	-14%

2 of these compounds in another layout.
Cc1c(C(=O)NCCO)sc2nc3n(c(=O)c12)CCC3
  VACV Venus inh: -20% | Vaccinia mCherry: -16%
CCCNC(=O)c1ccccc1NC(=O)c1ccc2c(=O)n3c(nc2c1)CCC3
  VACV Venus inh: -9% | Vaccinia mCherry: -6%

The listing continues:
SMILES	VACV Venus inh	Vaccinia mCherry
Cc1cnc(-n2ncc(C(=O)NCCCc3ccncc3)c2C)nc1-c1ccc(F)cc1	?	-42%
Cc1cc(C)n(CCC(=O)N2CCCC(N3CCN(c4cccc(Cl)c4)CC3)C2)n1 (centres undefined)	-22%	0%
CSc1oc(-c2ccc(F)cc2)nc1S(=O)(=O)c1ccc(F)cc1	-10%	i
CCOC(=O)c1c(C)[nH]c(C)c1S(=O)(=O)N(C)CC(=O)Nc1ccc(OC)cc1	-2%	-10%
O=C(/C=C/c1cc2c(cc1Br)OCO2)NCc1ccc(F)cc1	-18%	nt
COCCOC(=O)c1c(C)oc2ccc(NS(=O)(=O)c3cccs3)cc12	-10%	i
CCc1cccc2c(C(O)c3c[nH]c4ccccc34)c[nH]c12 (centres undefined)	58%[activator]	-6%
C=CCOC(=O)/C(=C\C=C\c1ccccc1)NC(=O)c1ccccc1	-13%	-11%
COc1ccc(OCCC(=O)OCC(=O)Nc2cccc(Br)c2)cc1	-3%	-9%
O=C(NC1CCSc2ccccc21)c1ccc(Cl)c(S(=O)(=O)N2CCOCC2)c1 (centres undefined)	-11%	-21%
Cc1c(C=O)c2ccccc2n1CC(=O)O	-8%	i
O=C(COC(=O)c1ncc(Cl)c(Cl)c1Cl)NC(=O)NCc1ccccc1	-1%	i
O=C(CCSc1nnc(-c2ccncc2)o1)Nc1cccc2ccccc12	?	?
CC(=O)N1CCc2c(sc3c2c(=O)n(Cc2ccccc2)c(=O)n3Cc2ccccc2Cl)C1	-22%	-30%
CC(C)CC(C(=O)NC1CCCCC1)N(Cc1ccccc1)C(=O)c1snc(C(N)=O)c1N (centres undefined)	-5%	i
Cc1c(C(=O)OCC2CCCO2)[nH]c2c1C(=O)CC(c1ccco1)C2 (centres undefined)	?	?
CC(=O)c1c(C(C)=O)c(C)n(-c2ccc(C)c(NC(=O)c3ccccc3Cl)c2)c1C	-21%	-3%
CCC(=O)Nc1ccc2nc(SCc3ccc(C)cc3)sc2c1	2%	-10%
COC(=O)c1ccccc1S(=O)(=O)N1CCC(C(=O)OCc2ccc([N+](=O)[O-])cc2)CC1	-9%	-15%
O=C(/C=C/c1cccc([N+](=O)[O-])c1)NCCSCc1ccc(Cl)cc1Cl	-28%	?
OCCN1CCN(c2ncnc3sc(-c4ccccc4)cc23)CC1	-21%	-17%
COc1ccc(CNC(=O)CCCOc2cc(=O)n(C)c3ccccc23)cc1	2%	4%
CN(C)c1ccc(C(CNS(=O)(=O)c2ccc(F)c(F)c2)c2c[nH]c3ccccc23)cc1 (centres undefined)	-29%	?
O=C1N[C@@H](c2ccccc2)COC(=O)[C@@H](Cc2ccc(F)cc2)C/C=C\C[C@H]1CC(=O)N(CCO)Cc1ccccc1	?	-26%
COc1ccc(NN=Nc2nc3c([nH]2)c(=O)n(C)c(=O)n3C)cc1	0%	-15%
CC1CCN(C(=O)c2ccc([N+](=O)[O-])o2)CC1	-27%	-16%
CCCN=Cc1sc2ccc(OCC)cc2c1O	-21%	-14%
CN(CC(=O)N1CCN(c2ccccn2)CC1)S(=O)(=O)c1ccc(Cl)cc1	6%	1%
CCC(C)[C@@H](C(=O)N1CCNCC1)n1cc(CCCN=C(N)N)nn1 (some centres undefined)	5%	i
Cc1ccc(N/N=C/c2ccc3c(c2)OCCO3)cc1Cl	-9%	-23%
C=Cc1ccc(Cn2c(C)c(C(=O)NCc3ccc4c(c3)OCCO4)sc2=O)cc1	-3%	13%
COc1ccc(NC(=O)c2cccc(OS(=O)(=O)N(C)C)c2)cc1	-14%	i
CCOc1cc(C)nc(N2CCC(C(=O)NCC3CCCO3)CC2)n1 (centres undefined)	-5%	i
Cc1[nH]nc(C(=O)NN=Cc2ccccc2Cl)c1N=NN(C)C	-15%	-26%
O=C(Nc1ccc(S(=O)(=O)N2CCCCCC2)cc1)c1cc(=O)c2ccccc2o1	-25%	-18%
O=c1[nH]c2ccc(Cl)cc2c(-c2ccccc2)c1N1CCN(c2ccccn2)CC1	-18%	-5%
Cc1nn(CCC(=O)Nc2ccc(Cl)cc2)c(C)c1S(=O)(=O)N1CCCCC1	-17%	-14%
CCN1CCN(CCCNC(=O)c2cnn(-c3ccc(C)cc3)c2C2CCN(C(=O)OC(C)(C)C)CC2)CC1	-8%	i
c1ccc2[nH]c(C3CC3)nc2c1	10%	0%
Cc1c(C)c2c(OCC(=O)NCc3ccco3)cc3c(c2oc1=O)CCC(C)(C)O3	-21%	-15%
Cc1cccc(OCC(=O)OCC(=O)Nc2sccc2C(N)=O)c1	-5%	-20%
COc1ccc(OC)c(NC(=O)N2CC(C)Oc3ccc(C)cc32)c1 (centres undefined)	-12%	-9%
CCN1CCN(Cc2ccc(NC(=O)c3ccc(C)c(NC(=O)C4=NN(c5ccccc5)C(=O)C4)c3)cc2C(F)(F)F)CC1	-12%&-13%	?
NC1=NC(=O)CC(C(=O)NCc2ccccc2)S1 (centres undefined)	-16%	-24%
Cc1ccccc1OCCNc1cc(N2CCCCC2)ccc1[N+](=O)[O-]	?	?
COc1ccc(-c2ccnc(-n3ncc(C(=O)NCc4ccon4)c3C3CC3)n2)cc1F	?	-15%
CSCCC(C(=O)NC1CCCC1)n1c(C2CC2)nc2ccccc21 (centres undefined)	9%	-10%
c1ccc(Nc2nc(CSc3ncn[nH]3)cs2)cc1	-6%	i
COc1cccc(-c2ccc(NC(=O)C3CCCN(Cc4cccc(C)n4)C3)cc2)c1 (centres undefined)	-23%	-14%
Cc1cc2c(cc1C)C(=O)CCC2	-5%	i
CC(/C=C/c1ccc(O)cc1)=NNc1ccccc1	-16%	?
CC(C)Oc1cccc(C(=O)C2CCCN(S(C)(=O)=O)C2)c1 (centres undefined)	-8%	i
CCN1CCCC1CNC(=O)C1c2cc(OC)c(OC)cc2C(=O)N(C)C1c1cccnc1 (centres undefined)	-8%	-13%
CC(C)NC(=O)c1cc(C2CCCCN2S(=O)(=O)c2ccc(C#N)cc2)on1 (centres undefined)	-9%	9%
COc1ccccc1C(=O)OCc1cc(=O)n2nc(-c3cccs3)sc2n1	-4%	-14%
COC(=O)c1cc(Cl)cc(Cl)c1OS(=O)(=O)N(C)C	-4%	i
O=C(Nc1ccc2nc(-c3ccco3)c(-c3ccco3)nc2c1)N1CCCCCC1	-1%	i
COc1ccc(C(=O)c2[nH]c(N)c(C(N)=O)c2-c2ccc(OC)c(OC)c2)cc1	-5%	-13%
CCOc1ccc(N2CC(C(=O)N3CCCCCC3)CC2=O)cc1 (centres undefined)	-4%	-11%
